motility: Vibrio cholerae motility inhibitors, OD read-out (AID 588778) | 10,000 tested, under 10 active | Vibrio cholerae motility, OD read-out; higher % means a stronger effect; test concentration not given here; primary cut-off and reference of the scale not given here; strong numbers were not always called active | inhibition, %; hits with a dose series show IC50 in µg/mL; in the data active = confirmed in a dose series
motility viability: second read-out of motility, no call of its own (marks repeat the call); inhibition, %; measured here: bacterial viability at 10 ug/mL;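 higher means fewer living bacteria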
The depositor's hits bear a star.

Cc1cc(Br)cc(C)c1OCC(=O)Nc1ccc(S(=O)(=O)Nc2ncccn2)cc1
  motility = -0.2%; motility viability = -1.9
CC1Cc2ccccc2N1C(=O)c1ccc2c(c1)nnn2C (stereo unspecified)
  motility = -2.9%; motility viability = -5.1
CN(c1cccc(NC(=O)Cc2ccccc2)c1)S(C)(=O)=O
  motility = -2.8%; motility viability = -5.4
CC(=O)c1ccc(NC(=S)N2CCN(S(=O)(=O)c3ccc(F)cc3)CC2)cc1
  motility = -2.5%; motility viability = 33.1
CC(=O)OC1CCC2OC1CCC2OC(C)=O (stereo unspecified)
  motility = 12.8%; motility viability = 16.5
COc1ccc(NC(=O)N2CCN(c3ccc([N+](=O)[O-])cc3)CC2)cc1OC
  motility = 5.4%; motility viability = 3.1
O=C(COc1cc(Cl)c(Cl)cc1Cl)NC1=NCCS1
  motility = 6.5%; motility viability = -5.3
COC(=O)c1sccc1NC(=O)CSc1nnnn1-c1ccccc1C
  motility = 1.2%; motility viability = -3.2
O=S(=O)(c1ccc(F)cc1)c1ccc(Cl)cc1
  motility = 22.9%; motility viability = 4.7
O=c1c2c(nc3cc(-c4ccc(F)cc4)[nH]n13)CCS2
  motility = 4.0%; motility viability = -2.0
CC(C)(C)c1oc(C(=O)O)cc1COCC(F)(F)F
  motility = 7.2%; motility viability = -2.8
CC(Oc1ccc(C(C)(C)C)cc1)C(=O)Nn1cnnc1 (stereo unspecified)
  motility = 2.7%; motility viability = -1.3
O=C1CC(c2ccccc2Cl)CC2=C1C(c1ccccc1F)Nc1ccccc1N2 (stereo unspecified)
  motility = -18.2%; motility viability = -9.5
C=CCSc1nc(N)c(-c2nc(-c3ccccc3)cs2)cc1C(N)=O
  motility = -1.8%; motility viability = -5.2
O=C(Cn1c(=O)n(-c2cccc(Cl)c2)c(=O)n1CC(=O)N1CCCCC1)N1CCCCC1
  motility = 8.9%; motility viability = 5.2
CCOc1ccc(CC(=O)O)cc1OCC
  motility = -8.7%; motility viability = -3.5
COc1cc(C(=O)OCC2CC(c3ccccc3)=NO2)cc(OC)c1OC (stereo unspecified)
  motility = 0.5%; motility viability = -0.3
N#COc1ccc(Nc2ccc(OC#N)cc2)cc1
  motility = 4.0%; motility viability = 36.1
Cc1ccc(SCc2nnc(NC(=O)c3cccs3)s2)cc1
  motility = 0.9%; motility viability = -4.3
O=C(NNC(=O)c1cccnc1)Nc1cccc(Cl)c1Cl
  motility = 7.5%; motility viability = -3.4
CCC(C(=O)N1CCN(c2ncccn2)CC1)c1ccccc1 (stereo unspecified)
  motility = 12.1%; motility viability = 34.6
Fc1ccc(-c2nc3n(n2)Cc2ccccc2-3)cc1
  motility = 10.7%; motility viability = -0.6
COc1cccc(OCCOc2ccc(Cl)cc2)c1
  motility = -4.6%; motility viability = -1.3
CCOC(=O)c1c(C)nc2cc(C(=O)Nc3ccc(F)cc3F)nn2c1C
  motility = -8.4%; motility viability = 6.8
O=c1cc(CSc2nnnn2-c2ccccc2)[nH]c(=S)[nH]1
  motility = 17.1%; motility viability = 3.6

Brought forward from above: three compounds, then new ones.
COc1cccc(OCCOc2ccc(Cl)cc2)c1
  motility = -4.6%; motility viability = -1.3
CCOC(=O)c1c(C)nc2cc(C(=O)Nc3ccc(F)cc3F)nn2c1C
  motility = -8.4%; motility viability = 6.8
O=c1cc(CSc2nnnn2-c2ccccc2)[nH]c(=S)[nH]1
  motility = 17.1%; motility viability = 3.6
Cc1c(NC(=O)Cn2nc(C(F)(F)F)c3c2CCC3)c(=O)n(-c2ccccc2)n1C
  motility = 10.4%; motility viability = 2.9
CCOC(=O)c1cc2c(=O)n3ccccc3nc2n(CC2CCCO2)c1=NC(=O)c1ccc(Br)o1 (stereo unspecified)
  motility = -2.7%; motility viability = -8.2
NS(=O)(=O)c1ccc(NC(=S)Nc2cc(OCC(F)(F)F)cc(OCC(F)(F)C(F)F)c2)cc1
  motility = 10.8%; motility viability = 29.1
CCC(SCC(=O)Nc1ccc2ccccc2c1)C(=O)Nc1ccc(C(C)=O)cc1 (stereo unspecified)
  motility = 5.2%; motility viability = -1.7
Cc1cccc(NC(=O)CSc2nc(N)c(C#N)c(-c3ccc(F)cc3)c2C#N)c1
  motility = 7.3%; motility viability = -0.5
Cc1ccc(-n2ncc3c(NCc4ccccc4Cl)ncnc32)c(C)c1
  motility = -5.1%; motility viability = -4.9
CCOc1ccc(NC(=O)NC(=O)C(F)(F)F)cc1
  motility = -21.4%; motility viability = -11.6
O=C(CCCN1C(=O)c2ccccc2C1=O)OCc1ccccc1Cl
  motility = 6.3%; motility viability = 9.6
COc1cc2oc(=O)c(CC(=O)N3CCCC3)c(C)c2cc1OC
  motility = 0.4%; motility viability = -2.1
COC(=O)c1ccccc1COn1c(=O)c[n+]([O-])c2ccccc21
  motility = 11.9%; motility viability = 3.9
CSc1ccccc1NC(=O)C1CCCN(S(C)(=O)=O)C1 (stereo unspecified)
  motility = 1.3%; motility viability = 1.6
O=c1/c(=C/c2cccs2)sc2nnc(-c3ccccc3Cl)n12
  motility = -7.0%; motility viability = -8.0
CC(C)(C)C(=O)NC(=S)N1CCN(c2c(F)c(F)c(F)c(F)c2F)CC1
  motility = 22.0%; motility viability = 17.8
O=c1[nH]cnc2nc(N3CCCCC3)[nH]c12
  motility = 13.4%; motility viability = 17.3
Cc1nc(SCC(=O)O)[nH]c(=O)c1Oc1ccccc1
  motility = 15.0%; motility viability = 29.7
FC(F)(F)c1ccc(NCC2CCCO2)nc1 (stereo unspecified)
  motility = 6.9%; motility viability = -2.9
CCOC(=O)C(CCOCCSc1ccc(Cl)cc1)C(=O)OCC
  motility = -5.5%; motility viability = -2.2
CCn1c2ccccc2c2cc(NC(=S)NC(=O)c3ccc(C)cc3)ccc21
  motility = -8.7%; motility viability = -6.4
Cc1cc(C)n2nc(NCc3c(F)cccc3Cl)nc2n1
  motility = 12.8%; motility viability = 3.9
O=c1ccc2ccc(OCc3ccccc3Br)cc2o1
  motility = -29.9%; motility viability = -7.5
CCCC(=O)NCc1nc2ccccc2n1CC(=O)c1ccccc1
  motility = 10.1%; motility viability = 37.1
O=C1OC2(c3ccc(Br)cc3)C(OC(=O)C23CCCC3)C12CCCC2 (stereo unspecified)
  motility = -9.8%; motility viability = -4.6
O=C(CCNC(=O)OCc1ccccc1)Oc1ccc2c(=O)c(-c3ccc(Cl)cc3)coc2c1
  motility = 5.9%; motility viability = 7.0
CCCCC1C(=O)NC(=S)N(c2ccc(C)c(C)c2)C1=O (stereo unspecified)
  motility = -9.0%; motility viability = -6.7
O=C(OCC1CCCN2CCCCC12)c1ccccc1Br (stereo unspecified)
  motility = 30.4%; motility viability = 7.7

Cn1c(=O)n(C)c2cc(S(=O)(=O)NCCOc3ccccc3)ccc21
  motility = 31.1%; motility viability = 4.2
O=C(Cc1cccc2ccccc12)Nc1ccc(C(=O)NC2CCCCC2)cc1
  motility = 3.6%; motility viability = 22.3
O=C(NCc1ccco1)Nc1ccc2snnc2c1
  motility = 23.4%; motility viability = 2.1
Cc1oc2cc(OC(=O)N3CCOCC3)ccc2c(=O)c1Oc1ccccc1Br
  motility = -9.9%; motility viability = -5.6
CCOC(=O)c1ccc(CSc2nc(C)cc(COC)c2C#N)cc1
  motility = 29.6%; motility viability = 7.3
O=C(COc1ccc2ccccc2c1Br)Nc1ccccc1F
  motility = -10.2%; motility viability = -6.4
Cc1cc(CNC(=O)Cc2ccc([N+](=O)[O-])cc2)nn1C
  motility = -11.3%; motility viability = 2.7
CC(C)N(Cc1nc(-c2ccc(Cl)cc2)no1)C(=O)c1cccs1
  motility = -3.8%; motility viability = 1.6
CC(C)(C)OC(=O)N1CCCC1C(=O)O (stereo unspecified)
  motility = -11.5%; motility viability = -1.5
O=C(NC(=S)Nc1ccc(-c2cc3ccccc3oc2=O)c(Cl)c1)c1cccs1
  motility = -14.3%; motility viability = -9.9
O=C(CNC(=O)C1CCCCC1)NNC(=O)C(c1ccccc1)c1ccccc1
  motility = 5.1%; motility viability = 4.0
CCc1sc(C(=O)Nc2cc(Cl)c(OC)cc2OC)cc1Br
  motility = 0.5%; motility viability = 0.7
Cc1ccc(O)c(Nc2ncnc3ccc([N+](=O)[O-])cc23)c1
  motility = 1.1%; motility viability = 0.5
Brc1ccc2nc3c(n2c1)CCCC3
  motility = 7.6%; motility viability = 35.5
O=C1c2ccccc2C(=O)N1c1nc2nccc(-c3ccccc3)n2n1
  motility = -15.2%; motility viability = -9.6
COc1ccc(C(=O)Nc2ccc(Cc3ccncc3)cc2)cc1Br
  motility = 9.0%; motility viability = 2.1
Clc1ccc(OCCNCCc2ccccc2)cc1
  motility = 49.5%; motility viability = 15.8
COc1nc(N)nc(NC23CC4CC(CC(C4)C2)C3)n1
  motility = 1.1%; motility viability = 8.6
C=CCc1cc(C=O)cc(OCC)c1O
  motility = 0.6%; motility viability = -9.0
c1ccc(-c2nc(-n3nc4ccccc4n3)nc3ccccc23)cc1
  motility = -3.8%; motility viability = 8.9
COC1=C2C(N)=Nc3oc(C(C)(C)C)nc3C2c2ccc(OC)cc2N1 (stereo unspecified)
  motility = 14.2%; motility viability = 6.0
O=C(CCC(=O)OCC(=O)c1ccccc1)Nc1nc(-c2ccccc2)cs1
  motility = -14.2%; motility viability = -4.3
CC(=O)c1cccc(NC(=O)N(c2ccccc2)c2ccccc2)c1
  motility = -6.8%; motility viability = -3.5
CCOC(=O)C1CCCN(Cc2nc(N)nc(Nc3ccc(Cl)cc3)n2)C1 (stereo unspecified)
  motility = 27.3%; motility viability = 8.6
Nc1ncnc2c1c1nc3ccccc3nc1n2Cc1ccccc1
  motility = -0.3%; motility viability = -0.9

Single values from the list:
COC1=C2C(N)=Nc3oc(C(C)(C)C)nc3C2c2ccc(OC)cc2N1 (stereo unspecified) in motility viability has 6.0
O=C(CCC(=O)OCC(=O)c1ccccc1)Nc1nc(-c2ccccc2)cs1 in motility viability has -4.3
O=c1ccc2ccc(OCc3ccccc3Br)cc2o1 in motility viability has -7.5
CC(C)(C)C(=O)NC(=S)N1CCN(c2c(F)c(F)c(F)c(F)c2F)CC1 in motility has 22.0%

Additional structures follow:
Results follow in this order: motility, motility viability
- COc1ccc(CCn2c(-c3cccc([N+](=O)[O-])c3)nc(=S)c3c2CCCC3)cc1OC
  3.9%, -2.5
- CC(Sc1nc(-c2ccccc2)cc(C(F)(F)F)n1)C(=O)NN1CCOCC1 (stereo unspecified)
  21.2%, -0.8
- COCCCNC(=S)NNS(=O)(=O)c1ccc(OC)c(OC)c1
  22.2%, 18.7
- CN(C)C(=S)NC(=O)C12CC3CC(C1)CC(c1ccccc1)(C3)C2
  -2.8%, 0.1
- O=C(Nc1cccnc1)c1ccc(CN2CCC(Cc3ccccc3)CC2)cc1
  -4.0%, 2.8
- Cc1nnc(SCCOc2ccccc2Cl)n1-c1ccc(F)cc1
  -6.2%, -1.5
- C=CCn1c(-c2ccccc2[N+](=O)[O-])n[nH]c1=S
  0.4%, -3.0
- O=C(NC(=S)Nc1cc(C(F)(F)F)ccc1N1CCOCC1)c1cncc(Br)c1
  9.5%, 2.5
- O=C1CCC(C(=O)Nc2cccc3ccccc23)N1 (stereo unspecified)
  -0.8%, -4.7
- CCC(CCC(=O)Nc1ccccc1[N+](=O)[O-])C(=O)O (stereo unspecified)
  8.9%, -0.8
- Cn1c(SCC(=O)N2CCCc3ccccc32)nnc1-c1c[nH]c2ccccc12
  12.9%, -4.7
- Cc1nn(Cc2cccc(C(=O)NN3CCCCC3)c2)c(C)c1Cl
  6.6%, 3.4
- CC(=O)NC(C1C(=O)CC(C)(C)CC1=O)(C(F)(F)F)C(F)(F)F
  -26.2%, -7.2
- O=C(CC12CC3CC(CC(C3)C1)C2)NC(=S)Nc1cccc(-c2cc3ccccc3oc2=O)c1
  3.8%, -0.3
- O=C1NC(=O)C(CCc2ccccn2)(CCc2ccccn2)C(=O)N1CCC1=CCCCC1
  0.9%, -0.5

Some of these compounds in order of length of the SMILES, smallest number first:
Results follow in this order: motility, motility viability
- Fc1ccc(-c2nc3n(n2)Cc2ccccc2-3)cc1
  10.7%, -0.6
- COc1nc(N)nc(NC23CC4CC(CC(C4)C2)C3)n1
  1.1%, 8.6
- O=C(Cc1cccc2ccccc12)Nc1ccc(C(=O)NC2CCCCC2)cc1
  3.6%, 22.3
- CN(C)C(=S)NC(=O)C12CC3CC(C1)CC(c1ccccc1)(C3)C2
  -2.8%, 0.1

Compound profiles, from the list above:
O=C1CCC(C(=O)Nc2cccc3ccccc23)N1 (stereo unspecified) is listed as motility = -0.8%; motility viability = -4.7
COc1ccc(CCn2c(-c3cccc([N+](=O)[O-])c3)nc(=S)c3c2CCCC3)cc1OC is listed as motility = 3.9%; motility viability = -2.5
Cc1nnc(SCCOc2ccccc2Cl)n1-c1ccc(F)cc1 is listed as motility = -6.2%; motility viability = -1.5

Further records follow.
Results follow in this order: motility, motility viability
- CC(=O)c1ccc(-c2ccc(C(C)=O)cc2)cc1
  -11.0%, -1.1
- COc1ccc(N/C(=N/c2nc(CSc3ccc(Cl)cc3)cc(=O)[nH]2)NC(=O)c2ccc(Cl)cc2)cc1
  -4.0%, -2.3
- CCOC(=O)N1CCN(C(=S)Nc2cc(OC)c(OC)cc2C(=O)OC)CC1
  -15.7%, -9.1
- Nc1ncnc(Nc2ccccc2C(F)(F)F)n1
  -9.1%, -3.2
- Oc1ccc(CNc2cccc(C(F)(F)F)c2)c2cccnc12
  19.0%, 4.3
- CC(C)(C)c1[nH]nc2c1C(c1ccc([N+](=O)[O-])o1)C(C#N)=C(N)O2 (stereo unspecified)
  93.4%, 99.2
- Cc1cc(C)nc(N(C#N)CC(=O)N2c3ccccc3CCc3ccccc32)n1
  16.6%, 4.8
- N#C/C(=C\c1ccc(N2CCCC2)cc1)c1ccc([N+](=O)[O-])cc1
  -2.6%, 1.2
- CCC(Sc1nc(N)cc(=O)[nH]1)C(=O)Nc1ccc(S(N)(=O)=O)cc1 (stereo unspecified)
  -11.0%, 1.3

The list is partial; count on the stated rates, not on these rows.
